KCNQ2 pot: KCNQ2 (rat) channel potentiation | B-score at 10 µM | actives 0.54% (n = 310,000) | O88943 | CHO-K1 KCNQ2, FluxOR thallium flux fluorescence; hits give high values;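 active = fluorescence ratio B-score at least 3 SD of library B-scores, with initial fluorescence B-score within 3 SD, cut at about 5.3 in these data; same plate scores as AID 2156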;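 note: B-score of peak minus minimum over baseline fluorescence ratio after K+ and Tl+ stimulus; positive B-score means potentiation of KCNQ2 with more thallium influx and brighter signal; only the inactives scoring about 0 or higher are listed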
Target sequence (O88943 whole entry, looked up): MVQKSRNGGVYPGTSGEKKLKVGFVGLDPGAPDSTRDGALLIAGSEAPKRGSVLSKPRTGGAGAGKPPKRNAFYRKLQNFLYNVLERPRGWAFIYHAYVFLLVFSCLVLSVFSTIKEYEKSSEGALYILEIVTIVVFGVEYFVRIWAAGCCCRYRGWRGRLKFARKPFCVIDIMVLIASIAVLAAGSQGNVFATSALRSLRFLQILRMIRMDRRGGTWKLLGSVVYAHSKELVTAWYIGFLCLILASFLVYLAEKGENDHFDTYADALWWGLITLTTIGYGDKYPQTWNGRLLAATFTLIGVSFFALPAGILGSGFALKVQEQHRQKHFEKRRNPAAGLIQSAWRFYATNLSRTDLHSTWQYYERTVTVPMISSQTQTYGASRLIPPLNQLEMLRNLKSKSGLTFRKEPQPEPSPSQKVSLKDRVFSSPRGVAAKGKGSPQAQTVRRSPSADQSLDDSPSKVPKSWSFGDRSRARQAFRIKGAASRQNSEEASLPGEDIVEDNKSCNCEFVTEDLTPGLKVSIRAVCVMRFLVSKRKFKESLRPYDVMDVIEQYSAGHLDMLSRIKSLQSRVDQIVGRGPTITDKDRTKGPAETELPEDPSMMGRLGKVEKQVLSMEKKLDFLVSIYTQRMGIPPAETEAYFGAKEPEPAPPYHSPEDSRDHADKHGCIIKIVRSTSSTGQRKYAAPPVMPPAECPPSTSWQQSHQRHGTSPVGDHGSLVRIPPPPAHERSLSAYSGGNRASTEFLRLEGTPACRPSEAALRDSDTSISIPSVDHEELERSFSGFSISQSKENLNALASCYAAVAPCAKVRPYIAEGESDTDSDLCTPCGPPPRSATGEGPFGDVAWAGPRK
KCNQ2 pot baseline: further read-out of KCNQ2 pot, marked with its call; B-score; compound at 10 µM; measured here: initial fluorescence intensity artifact check;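 brightness before thallium and not channel activity; 0 = typical well and far values either way flag optical interference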
The depositor's hits bear a star; · = not tested or not shown; & = joins results of further samples. Not all compounds are listed (hit frequency here may not be typical).

Preview, four compounds:
SMILES | KCNQ2 pot | KCNQ2 pot baseline
O=C(O)c1cccnc1Nc1cccc(C(F)(F)F)c1 | 1.9 | -0.12
NC(N)=O | 0.32 | 2.5
COc1ccc(C[C@H]2COC(=O)[C@@H]2Cc2ccc(OC3OC(CO)C(O)C(O)C3O)c(OC)c2)cc1OC (stereo not given in full) | 0.21 | 0.02
CCc1ccc(CCOc2ccc(CC3SC(=O)NC3=O)cc2)nc1 (stereo not given) | 1.4 | 0.6

Main list, from the first entry:
SMILES | KCNQ2 pot | KCNQ2 pot baseline
O=C(O)c1cccnc1Nc1cccc(C(F)(F)F)c1 | 1.9 | -0.12
NC(N)=O | 0.32 | 2.5
COc1ccc(C[C@H]2COC(=O)[C@@H]2Cc2ccc(OC3OC(CO)C(O)C(O)C3O)c(OC)c2)cc1OC (stereo not given in full) | 0.21 | 0.02
CCc1ccc(CCOc2ccc(CC3SC(=O)NC3=O)cc2)nc1 (stereo not given) | 1.4 | 0.6
Oc1ccc(C2CNCCc3c2cc(O)c(O)c3Cl)cc1 (stereo not given) | 0.01 | -0.16
C1COC(NC(C2CC2)C2CC2)=N1 | 0.37 | 0.51
CNCCCN1c2ccccc2CCc2ccccc21 | 1.2 | 0.29
Cc1ccc(N(CC2=NCCN2)c2cccc(O)c2)cc1 | 0.24&0.06 | ·
CN(C)CCCC1(c2ccc(F)cc2)OCc2cc(C#N)ccc21 (stereo not given) | 0.17 | -0.78
CC(=O)Nc1ccc(CC(=O)O)cc1 | 1.7 | -0.01
Cc1cncn1CCc1nc2c3ccccc3nc(SCC(=O)Nc3cccc(Cl)c3)n2n1 | 0.04 | -0.17
CCCc1nc(C(C)(C)O)c(C(=O)O)n1Cc1ccc(-c2ccccc2-c2nn[nH]n2)cc1 | 0.41 | 0.24
COc1ccc(C2CNC(=O)C2)cc1OC1CCCC1 (stereo not given) | 0.02 | -1.5
CCN(CC)CCOC(=O)c1ccc(N)cc1 | 1.8 | -2.2
COc1ccc(-c2cc(=O)c3c(O)cc(O[C@@H]4O[C@H](CO[C@@H]5O[C@@H](C)[C@H](O)[C@@H](O)[C@H]5O)[C@@H](O)[C@H](O)[C@H]4O)cc3o2)cc1O | 0.65 | -0.08
CN(C)CCC[C@]1(c2ccc(F)cc2)OCc2cc(C#N)ccc21 | 1.6 | 2
O=C(O)CCC(=O)c1ccc(-c2ccccc2)cc1 | 1 | -1.4
CCCCNc1ccc(C(=O)OCCN(C)C)cc1 | 0.49 | -0.86

In a second layout: results already given
KCNQ2 pot | KCNQ2 pot baseline | SMILES
0.04 | -0.17 | Cc1cncn1CCc1nc2c3ccccc3nc(SCC(=O)Nc3cccc(Cl)c3)n2n1
0.41 | 0.24 | CCCc1nc(C(C)(C)O)c(C(=O)O)n1Cc1ccc(-c2ccccc2-c2nn[nH]n2)cc1
0.02 | -1.5 | COc1ccc(C2CNC(=O)C2)cc1OC1CCCC1 (stereo not given)
1.8 | -2.2 | CCN(CC)CCOC(=O)c1ccc(N)cc1
0.65 | -0.08 | COc1ccc(-c2cc(=O)c3c(O)cc(O[C@@H]4O[C@H](CO[C@@H]5O[C@@H](C)[C@H](O)[C@@H](O)[C@H]5O)[C@@H](O)[C@H](O)[C@H]4O)cc3o2)cc1O
